Screens: PubChem, Broad Institute
p53 mut binder: binders of human mutant p53; small molecule microarray binding, anti-GST fluorescence; calls only; 0.4% of 17,000 active;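 active = compounds whose four printed spots each glow above background more than chance allows, each with a p-value under 7%; compounds were printed on slides so no solution concentration is given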;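 note: about 2 pmol printed per array spot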
STAT3 SMM: binds human STAT3 on microarray; calls only; Small molecule microarray, His-STAT3 binding, anti-His fluorescence; 0.2% of 17,000 active; AID 624138;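 active = compounds whose four printed spots each show fluorescence over background unusually high for their array block, chance value under 7%; compounds were printed on slides so no solution concentration is given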;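 note: about 2 pmol printed per array spot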
Myc binder: binders of human c-Myc | P01106 | small molecule microarray, His-c-Myc binding, anti-His fluorescence | calls only | 1.5% of 17,000 active;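 active = spot fluorescence over background with P-value below 7% in all four replicate spots, showing protein binding; compounds were printed on slides so no solution concentration is given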;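 note: score is binary with 100 for all four spots passing and 0 otherwise; about 2 pmol printed per array spot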
Target sequence (P01106 whole entry, looked up): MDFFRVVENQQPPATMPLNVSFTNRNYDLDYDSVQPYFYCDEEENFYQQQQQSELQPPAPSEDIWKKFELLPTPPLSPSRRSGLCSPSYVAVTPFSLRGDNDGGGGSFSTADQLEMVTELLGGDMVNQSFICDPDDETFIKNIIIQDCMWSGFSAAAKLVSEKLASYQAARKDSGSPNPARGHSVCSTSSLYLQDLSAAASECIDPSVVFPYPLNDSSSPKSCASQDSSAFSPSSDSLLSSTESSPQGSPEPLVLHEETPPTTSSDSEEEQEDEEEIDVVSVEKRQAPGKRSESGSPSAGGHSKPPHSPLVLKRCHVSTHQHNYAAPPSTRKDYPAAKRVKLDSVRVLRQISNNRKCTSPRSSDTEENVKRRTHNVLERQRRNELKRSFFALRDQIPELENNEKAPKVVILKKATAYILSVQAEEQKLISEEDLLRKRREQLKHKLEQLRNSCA
ID4 SMM: binders of human ID4 protein | calls only | AID 624137 | 1.2% of 31,000 active | small molecule microarray, Flag-ID4 binding, fluorescence F/B;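 active = spot signal over background at p below 0.07 in all four prints; compounds were printed on slides so no solution concentration is given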;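 note: a binder raises fluorescence above local background on the spot; about 2 pmol printed per array spot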
Target sequence (P47928 whole entry, looked up): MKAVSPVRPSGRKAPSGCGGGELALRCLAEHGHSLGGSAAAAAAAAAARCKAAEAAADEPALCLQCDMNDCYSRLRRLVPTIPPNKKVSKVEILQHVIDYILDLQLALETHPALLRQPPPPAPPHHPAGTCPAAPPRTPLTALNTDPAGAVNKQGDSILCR
Calls only; i = inactive; / = no result given; + = active, no number. Some of the compounds tested (hit frequency here may not be typical).

SMILES | p53 mut binder | STAT3 SMM | Myc binder | ID4 SMM
Cc1noc(C)c1S(=O)(=O)Nc1cccc2c1O[C@@H](CN(C)Cc1ccncc1)[C@@H](C)CN([C@H](C)CO)C2=O | i | i | i | i
O=C(COc1ccc(Br)cc1)NCCN1CCOCC1 | i | i | i | i
CC1=CC(C/C(C)=C/COc2ccc3ccc(=O)oc3c2)OC1=O (stereo not drawn) | i | i | i | i
COc1ccc(-c2cc(C)nc(SCC(=O)c3cccc([N+](=O)[O-])c3)n2)cc1 | i | i | i | i
C[C@H]1CN([C@@H](C)CO)C(=O)c2cccc(NS(C)(=O)=O)c2O[C@H]1CN(C)CC1CC1 | i | i | i | i
C[C@@H]1CN([C@@H](C)CO)C(=O)c2cc(NC(=O)Nc3ccc4c(c3)OCO4)ccc2O[C@@H](C)CCCCO[C@@H]1CN(C)Cc1ccc2c(c1)OCO2 | i | i | i | /
Cc1noc(C)c1S(=O)(=O)Nc1ccc2c(c1)CC(=O)N([C@H](C)CO)C[C@@H](C)[C@@H](CN(C)C(=O)Nc1ccc(C(F)(F)F)cc1)O2 | i | i | i | i
C[C@@H]1CN([C@H](C)CO)C(=O)CCCn2cc(nn2)CO[C@H]1CN(C)C(=O)c1ccc2ccn(C)c2c1 | i | i | i | i
COc1ccc2c(c1)O[C@@H]1COc3cc4c(cc3[C@]1(O)C2=O)OCO4 | i | i | i | /
CC1OC(OCC2(C)C=C3C4CCC5C6(C)CCC(O)C(C)(COC7OC(CO)C(O)C(O)C7O)C6CCC5(C)C4(C)CCC3(C(=O)O)CC2)C(O)C(O)C1O (stereo not drawn) | i | i | i | /
COc1ccc(CN(C)C[C@@H]2Oc3ccc(NC(=O)Nc4ccc(C(F)(F)F)cc4)cc3CC(=O)N([C@@H](C)CO)C[C@@H]2C)cc1 | i | i | i | i
C[C@H](CO)N1C[C@H](C)[C@H](CN(C)Cc2ccc(C(F)(F)F)cc2)Oc2ccc(NS(C)(=O)=O)cc2CC1=O | i | i | i | i
COc1ccc(NC(=O)CSc2nc(O)cc(=O)n2C)cc1 | i | i | i | i
c1ccc(CNc2ncnc3scc(C4COc5ccccc5O4)c23)cc1 (stereo not drawn) | i | i | i | i
C[C@H](CO)N1C[C@H](C)[C@H](CN(C)S(=O)(=O)c2ccccc2)OCCCC[C@H](C)Oc2ccc(NC(=O)Cc3ccccc3)cc2C1=O | i | i | i | i
C=CC1C2C(C)=CC(C3C(=O)N(C)C(=O)C32)N1Cc1ccc(OC)cc1 (stereo not drawn) | i | i | i | i
O=C(CC1c2ccccc2Oc2ccccc21)Nc1ccccc1C(=O)N1CCCCC1 | i | i | i | i
COc1cc(NC(=O)COc2cccc(C)c2C)ccc1-c1cc2ccccc2oc1=O | i | i | i | i
C[C@@H]1CCCCO[C@H](CN(C)C(=O)CCC(F)(F)F)[C@@H](C)CN([C@@H](C)CO)C(=O)c2cc(NS(C)(=O)=O)ccc2O1 | i | i | i | i
CNC[C@@H]1Oc2ccc(NS(C)(=O)=O)cc2CC(=O)N([C@@H](C)CO)C[C@H]1C | i | i | i | i

Arranged by heavy-atom count (highest first): some entries from above
SMILES | p53 mut binder | STAT3 SMM | Myc binder | ID4 SMM
C[C@@H]1CN([C@@H](C)CO)C(=O)c2cc(NC(=O)Nc3ccc4c(c3)OCO4)ccc2O[C@@H](C)CCCCO[C@@H]1CN(C)Cc1ccc2c(c1)OCO2 | i | i | i | /
C[C@H](CO)N1C[C@H](C)[C@H](CN(C)S(=O)(=O)c2ccccc2)OCCCC[C@H](C)Oc2ccc(NC(=O)Cc3ccccc3)cc2C1=O | i | i | i | i
Cc1noc(C)c1S(=O)(=O)Nc1ccc2c(c1)CC(=O)N([C@H](C)CO)C[C@@H](C)[C@@H](CN(C)C(=O)Nc1ccc(C(F)(F)F)cc1)O2 | i | i | i | i
C[C@@H]1CCCCO[C@H](CN(C)C(=O)CCC(F)(F)F)[C@@H](C)CN([C@@H](C)CO)C(=O)c2cc(NS(C)(=O)=O)ccc2O1 | i | i | i | i
C[C@H](CO)N1C[C@H](C)[C@H](CN(C)Cc2ccc(C(F)(F)F)cc2)Oc2ccc(NS(C)(=O)=O)cc2CC1=O | i | i | i | i
O=C(CC1c2ccccc2Oc2ccccc21)Nc1ccccc1C(=O)N1CCCCC1 | i | i | i | i
C[C@H]1CN([C@@H](C)CO)C(=O)c2cccc(NS(C)(=O)=O)c2O[C@H]1CN(C)CC1CC1 | i | i | i | i
CNC[C@@H]1Oc2ccc(NS(C)(=O)=O)cc2CC(=O)N([C@@H](C)CO)C[C@H]1C | i | i | i | i
CC1=CC(C/C(C)=C/COc2ccc3ccc(=O)oc3c2)OC1=O (stereo not drawn) | i | i | i | i
COc1ccc(NC(=O)CSc2nc(O)cc(=O)n2C)cc1 | i | i | i | i

Next section
SMILES | p53 mut binder | STAT3 SMM | Myc binder | ID4 SMM
COc1ccc2c(c1)c(=O)oc1c(C)c(OCC(=O)NCC3CCCO3)ccc12 (stereo not drawn) | i | i | i | i
COC(=O)Nc1sc2c(c1C(=O)NCc1ccco1)CCCC2 | i | i | i | +
C[C@H]1CN([C@@H](C)CO)C(=O)c2cc(NC(=O)Nc3ccc4c(c3)OCO4)ccc2O[C@@H]1CN(C)C(=O)Nc1ccc(C(F)(F)F)cc1 | i | i | i | i
C[C@@H]1CN([C@H](C)CO)C(=O)c2cccc(NC(=O)c3nc4ccccc4s3)c2O[C@H]1CN(C)CC1CC1 | i | i | i | i
C[C@@H]1CN([C@H](C)CO)C(=O)c2cccc(NC(=O)c3cnccn3)c2O[C@H]1CN(C)Cc1ccc(C(F)(F)F)cc1 | i | i | i | i
CC(C)NC(=O)Nc1ccc2c(c1)C(=O)N([C@H](C)CO)C[C@@H](C)[C@H](CN(C)S(=O)(=O)c1ccccc1)OCCCC[C@H](C)O2 | i | i | i | i
COc1ccc(S(=O)(=O)Nc2ccc3c(c2)CC(=O)N([C@H](C)CO)C[C@H](C)[C@@H](CN(C)CC2CC2)O3)cc1 | i | i | i | i
COc1ccc(S(=O)(=O)N(C)CC(=O)Nc2c(C)cc(C)cc2C)cc1 | i | i | i | i
C[C@@H]1CN([C@H](C)CO)C(=O)c2cccc(NS(=O)(=O)c3cn(C)cn3)c2O[C@H]1CN(C)Cc1ccc(Oc2ccccc2)cc1 | i | i | i | i
C[C@H](CO)N1C[C@H](C)[C@@H](CN(C)CC2CC2)Oc2c(NS(=O)(=O)c3ccc(Cl)cc3)cccc2C1=O | i | i | i | i
CC(=O)C(O)(C(=O)OCc1ccc(O[C@@H]2O[C@H](CO)[C@@H](O)[C@H](O)[C@H]2O)cc1)C(C)C (stereo partly drawn) | i | i | i | i
O=C(O)C1=C[C@H](c2ccc(Br)cc2)C[C@H](OCCCCO)O1 | i | i | i | i
C[C@@H]1CCCCO[C@H](CN(C)C(=O)c2ccncc2)[C@H](C)CN([C@@H](C)CO)C(=O)c2cc(NC(=O)CCC(F)(F)F)ccc2O1 | i | i | i | i
Cc1nn(-c2nnc(C)c(=O)[nH]2)c(C)c1SCC(=O)Nc1ccc(F)cc1 | i | i | i | i
COc1cc(NC(=O)C(C)Oc2ccc(Cl)cc2Cl)c(OC)cc1Cl (stereo not drawn) | i | i | i | i
C[C@H](CO)N1C[C@H](C)[C@H](CN(C)CC2CC2)Oc2c(NC(=O)Nc3ccc(C(F)(F)F)cc3)cccc2C1=O | i | i | i | i
C[C@@H]1CN([C@@H](C)CO)C(=O)c2cc(NS(=O)(=O)c3ccccc3)ccc2O[C@@H]1CN(C)Cc1ccc2c(c1)OCO2 | i | i | i | /
C[C@@H]1CN([C@@H](C)CO)C(=O)c2cc(NC(=O)C3CCCCC3)ccc2O[C@@H](C)CCCCO[C@@H]1CN(C)C(=O)Nc1ccc(F)cc1 | i | i | i | /
Nc1nc(SCC(=O)Nc2ccc(F)cc2)n[nH]1 | i | i | i | i
Cc1noc(C)c1NC(=O)Nc1ccc2c(c1)C(=O)N([C@H](C)CO)C[C@H](C)[C@H](CN(C)C(=O)NC(C)C)OCCCC[C@H](C)O2 | i | i | i | i
C[C@H]1CN([C@@H](C)CO)C(=O)Cc2cc(NC(=O)Nc3ccccc3)ccc2O[C@@H]1CN(C)CC1CC1 | i | i | i | i
C[C@H](CO)N1C[C@H](C)[C@@H](CN(C)C(=O)NC2CCCCC2)Oc2ccc(NC(=O)Nc3ccccc3)cc2C1=O | i | i | i | i
CC1(C)Cc2c(sc3nc(SCc4ccccc4)nc(NCc4ccco4)c23)CO1 | i | i | i | i
COC(=O)c1cccc(NC(=O)CSc2nc(=O)cc(N)n2-c2ccccc2)c1 | i | i | i | i
C[C@@H]1CN([C@H](C)CO)C(=O)c2cccc(NS(C)(=O)=O)c2O[C@@H]1CN(C)S(=O)(=O)c1cccs1 | i | i | i | i
COCCNC(=O)CC1Sc2ccccc2NC1=O (stereo not drawn) | i | i | i | i
C[C@@H]1CCCCO[C@H](CN(C)C(=O)c2ccncc2)[C@H](C)CN([C@H](C)CO)C(=O)c2cc(NS(C)(=O)=O)ccc2O1 | i | i | i | i
COc1ccccc1S(=O)(=O)N(C)C[C@@H]1OCc2cn(nn2)CCCC(=O)N([C@@H](C)CO)C[C@@H]1C | i | i | i | i
CC(C)NC(=O)N(C)C[C@H]1OCCCC[C@@H](C)Oc2ccc(NC(=O)CCCN(C)C)cc2C(=O)N([C@H](C)CO)C[C@@H]1C | i | i | i | i
Cc1nc2ccc(NC(=S)NCCCO)cc2nc1C | i | i | + | i
O=C(Nc1ccc(Cl)c(Cl)c1)C(Cc1ccccc1)N1C(=O)c2ccccc2C1=O (stereo not drawn) | i | i | i | i
C=C1C[C@@]23CCC4[C@](C)(C(=O)O)CCC[C@@]4(C)[C@]2(O)CCC1C3 (stereo partly drawn) | i | i | i | i
CCNc1nc(NC(C)(C)C)nc(SCC(N)=O)n1 | i | i | i | i
Cn1nnnc1SCC1=C(C(=O)O)N2C(=O)[C@@H](NC(=O)[C@H](O)c3ccccc3)[C@H]2SC1 | i | i | i | /
Cc1noc(C)c1NC(=O)Nc1cccc2c1O[C@@H](CN(C)Cc1ccc(Cl)c(Cl)c1)[C@@H](C)CN([C@H](C)CO)C2=O | i | i | i | i
CN1CCN(C(=O)C2=C[C@@H](C3CCCCC3)C[C@@H](OCCCCO)O2)CC1 | i | i | i | /
C[C@H](CO)N1C[C@H](C)[C@@H](CN(C)C(=O)Nc2ccc(C(F)(F)F)cc2)Oc2ccc(NC(=O)c3ccncc3)cc2CC1=O | i | i | i | /
C[C@H](CO)N1C[C@H](C)[C@H](CN(C)Cc2ccccc2)Oc2ccc(NS(=O)(=O)c3cccs3)cc2CC1=O | i | i | i | i
CCC(CCCCC(=O)CCCCC1CCC(=O)O1)O[C@@H]1O[C@H](CO[C@@H]2O[C@H](CO)[C@@H](O)[C@H](O)[C@H]2O)[C@H](OC(=O)/C=C/c2ccc(O)cc2)[C@H](OC(C)=O)[C@H]1O (stereo partly drawn) | i | i | i | /
CN1CCCN=C1/C=C/c1cccs1 | i | i | i | i
COc1ccc(C(=O)NC(CC(C)C)C(=O)O)cc1OC (stereo not drawn) | i | i | i | i
Cc1noc(C)c1NC(=O)Nc1cccc2c1O[C@@H](CN(C)S(=O)(=O)c1ccc(Cl)cc1)[C@@H](C)CN([C@@H](C)CO)C2=O | i | i | i | i
O=C(CSc1nnc(-c2ccccc2)n1-c1ccc(F)cc1)c1ccccc1 | i | i | i | i
COc1ccc(S(=O)(=O)N(C)C[C@H]2Oc3c(NS(C)(=O)=O)cccc3C(=O)N([C@@H](C)CO)C[C@@H]2C)cc1 | i | i | i | i
C[C@H]1CCCCO[C@H](CN(C)Cc2ccc3c(c2)OCO3)[C@@H](C)CN([C@@H](C)CO)C(=O)c2cc(NC(=O)CCCN(C)C)ccc2O1 | i | i | i | i
CC(=O)Cc1ccccc1OCC(=O)O | i | i | + | i
C[C@@H]1CN([C@H](C)CO)C(=O)c2cccc(NS(C)(=O)=O)c2O[C@H]1CN(C)S(=O)(=O)c1ccc(Cl)cc1 | i | i | i | i
C[C@H]1CN([C@@H](C)CO)C(=O)c2cccc(N(C)C)c2O[C@@H]1CN(C)S(=O)(=O)c1ccc(Cl)cc1 | i | i | i | +
COc1ccc(C2Oc3c(OC)cc(/C=C/COC4OC(CO)C(O)C(O)C4O)cc3C2CO)cc1OC (stereo not drawn) | i | i | i | i
CNC[C@H]1Oc2ccc(NC(=O)Nc3ccc(OC)cc3)cc2C(=O)N([C@H](C)CO)C[C@@H]1C | i | i | i | i
Next part.
SMILES | p53 mut binder | STAT3 SMM | Myc binder | ID4 SMM
C[C@H](CO)N1C[C@H](C)[C@H](CN(C)Cc2ccccc2)OCCCC[C@H](C)Oc2ccc(NS(C)(=O)=O)cc2C1=O | i | i | i | i
COc1ccc([Si](C)(C)[C@H]2[C@H](CCO)O[C@@]3(C(=O)N4c5c(cc(OC)cc53)C(C)=CC4(C)C)[C@@H]2C)cc1 | i | i | i | /
Cc1ccc(F)cc1S(=O)(=O)N[C@@H]1CCN(Cc2cccc3[nH]ccc23)C1 | i | i | i | i
C[C@@H]1CN([C@H](C)CO)C(=O)c2cc(NC(=O)Cn3cnnn3)ccc2O[C@@H]1CN(C)CC1CC1 | i | i | i | i
C=CC[C@@]1(C(=O)N2CCCCC2)N=C(c2ccc(OCCCO)cc2)O[C@@H]1c1ccccc1 | i | i | i | i
COc1ccc(CN(C)C[C@@H]2Oc3c(NS(C)(=O)=O)cccc3C(=O)N([C@H](C)CO)C[C@H]2C)cc1 | i | i | i | i
O=C(NCc1ccco1)c1cc(-c2cccc(Cl)c2)nc2ccccc12 | i | i | i | i
COc1ccccc1NC(=O)N(C)C[C@H]1OCc2cnnn2CCCC(=O)N([C@H](C)CO)C[C@H]1C | i | i | i | i
